# Marburg entry: qHTS for Inhibitors of binding or entry into cells for Marburg Virus; Potency, µM (titrated, usually from 49.2 µM), inactives show top-dose activity change, negative = inhibition, most hits filed as inhibitors; hit rate 6.5% among 18,000; AID 720532, 2013; Marburg virus pseudotype entry/binding inhibition, cell-based; control for the full effect not named in the record; many of its hits are not listed in these tables; active means well fitted inhibition curve with a large enough effect; inconclusive means small, poorly fitted or top-dose-only effect; inactive means no such curve, though single readings can be large or run the other way; tested in HEK293 cells; note: luciferase read-out
# Lassa entry: qHTS for Inhibitors of binding or entry into cells for Lassa Virus | Lassa virus pseudotyped entry inhibition, cell-based qHTS; control for the full effect not named in the record; many of its hits are not listed in these tables | hit rate 4.1% among 18,000 | AID 720533, 2013 | Potency, µM (doses to about 49.2 µM), for inactives: at the top dose activity change, negative = inhibition, most hits filed as inhibitors; active = well fitted inhibition curve with a large enough effect; inconclusive = small, poorly fitted or top-dose-only effect; inactive = no such curve, though single readings can be large or run the other way; tested in HEK293 cells; note: luciferase read-out
# Active calls of the source: *; ? = inconclusive; . = no result given; & = joins results of further samples; [ ] = another dose, or the depositor's remark. % is set by controls: 0 for no effect and ±100 for the full control effect; potency is the fitted concentration of half-maximal effect. Only part of the results is shown. The share of hits here may be higher or lower than overall.
SMILES,Marburg entry,Lassa entry
COC(=O)NC(C(=O)OC)(C(=O)OC)c1ccccc1,-2%,-5%
Cc1cccc(CNc2ncnc3ccc(-c4c(C)noc4C)cc23)c1,1%,7%
C[C@H]1O[C@@H](O[C@H]2CC[C@@]3(C)[C@H](CC[C@@H]4[C@@H]3C[C@@H](O)[C@]3(C)[C@@H](C5=CC(=O)OC5)CC[C@]43O)C2)C[C@H](O)[C@@H]1O[C@H]1C[C@H](O)[C@H](O[C@H]2C[C@H](O)[C@H](O[C@@H]3O[C@H](CO)[C@@H](O)[C@H](O)[C@H]3O)[C@@H](C)O2)[C@@H](C)O1,0.28µM*,0.35µM*
CC(C)[N+](C)(CCC(C(N)=O)(c1ccccc1)c1ccccc1)C(C)C,-6%,12%
N[C@@H](Cc1ccccc1)C(=O)O,36%[activator],10%
CN(C)CCN(C)C1CN(Cc2ccccc2)S(=O)(=O)C1 (stereo not given),10%,11%
NCCCC[C@H](NC(=O)[C@@H]1CCCN1C(=O)[C@@H]1CSSC[C@H](N)C(=O)N[C@@H](Cc2ccccc2)C(=O)N[C@@H](Cc2ccccc2)C(=O)N[C@@H](CCC(N)=O)C(=O)N[C@@H](CC(N)=O)C(=O)N1)C(=O)NCC(N)=O,3%,1%
CCOc1ccc(S(=O)(=O)O)c2cccnc12,-16%,-2%
O=C(O)C(O)[C@@](O)(Cc1ccc(O)cc1)C(=O)O (stereo not given in full),9%,-7%
CCCCCCCCCCCCCCCC(=O)OC(CC(=O)O)C[N+](C)(C)C (stereo not given),4%,5%
C[C@@H](O)C(N)C(=O)O (stereo not given in full),-9%,-2%
CC(CCCCC(=O)Nc1ccc(C(F)(F)F)cc1)NCCc1cnc[nH]1 (stereo not given),-9%,2%
CC(=O)c1ccc(F)c(-c2cc(C)cc3c2OC(CNC(=O)Cc2c[nH]c4ccccc24)C3)c1 (stereo not given),-6%,?
COc1ccc2c(c1O)-c1c(OC)c(OC)cc3c1[C@@H](C2)N(C)CC3,-14%,2%
CCN1C(=NCCCOC(C)C)N[C@@H](CCc2ccccc2)[C@H](C(=O)OC)[C@H]1C,3%[8.59 µM],20%[8.59 µM]
C=C1CC[C@H](O)C/C1=C/C=C1\CCC[C@]2(C)[C@H]1CC[C@H]2[C@@H](C)CCCC(C)C,11%[17.8 µM],-9%[17.8 µM]
CCCCCCCC/C=C\CCCCCCCC(=O)OC[C@H](CO)OC(C)=O,1%&-27%,-4%&0%
CCCCCCC(=O)O[C@H]1CC[C@H]2[C@@H]3CCc4cc(O)ccc4[C@H]3CC[C@]12C,4%,32µM*
COc1ccc(CN2CCCC(c3nc(-c4ccncc4)ncc3-c3ccccc3)C2)cc1OC (stereo not given),?,?
COc1ccc(N2C(=O)[C@@H]3C[C@H]2CN3Cc2cccn2-c2ccc(Cl)cn2)c(C)c1,-3%,-14%
CC[C@H](C)[C@H](NC(=O)[C@H](Cc1ccc(O)cc1)NC(=O)[C@@H](NC(=O)[C@@H](N)CCCN=C(N)N)C(C)C)C(=O)N[C@@H](Cc1cnc[nH]1)C(=O)N1CCC[C@H]1C(=O)N[C@@H](Cc1ccccc1)C(=O)O,21%,3%
O=C(NCc1ccccc1)c1ccc(NC(=O)C2CCC2)cc1,21%,12%
COC(=O)C1=C(C)N(Cc2ccccc2)C(=NCc2ccc(OC)cc2)NC1c1cccc(F)c1 (stereo not given),-1%[8.59 µM],1%[8.59 µM]
C[C@@H]1O[C@H](O[C@@H]2[C@@H](Oc3cc(O)c4c(c3)O[C@H](c3ccc(O)cc3)CC4=O)O[C@@H](CO)[C@@H](O)[C@H]2O)[C@@H](O)[C@H](O)[C@@H]1O,-12%[17.8 µM],-6%[17.8 µM]
Nc1ccn(C2CO[C@H](CO)O2)c(=O)n1 (stereo not given in full),-17%,?

# Reprinted from the part before: 5 entries, then new ones.
SMILES,Marburg entry,Lassa entry
CC[C@H](C)[C@H](NC(=O)[C@H](Cc1ccc(O)cc1)NC(=O)[C@@H](NC(=O)[C@@H](N)CCCN=C(N)N)C(C)C)C(=O)N[C@@H](Cc1cnc[nH]1)C(=O)N1CCC[C@H]1C(=O)N[C@@H](Cc1ccccc1)C(=O)O,21%,3%
O=C(NCc1ccccc1)c1ccc(NC(=O)C2CCC2)cc1,21%,12%
COC(=O)C1=C(C)N(Cc2ccccc2)C(=NCc2ccc(OC)cc2)NC1c1cccc(F)c1 (stereo not given),-1%[8.59 µM],1%[8.59 µM]
C[C@@H]1O[C@H](O[C@@H]2[C@@H](Oc3cc(O)c4c(c3)O[C@H](c3ccc(O)cc3)CC4=O)O[C@@H](CO)[C@@H](O)[C@H]2O)[C@@H](O)[C@H](O)[C@@H]1O,-12%[17.8 µM],-6%[17.8 µM]
Nc1ccn(C2CO[C@H](CO)O2)c(=O)n1 (stereo not given in full),-17%,?
CC(=O)OCC1=C(C(=O)O)N2C(=O)[C@@H](NC(=O)CSc3ccncc3)[C@H]2SC1,14%,3%[17.8 µM]
COc1ccc([C@H]2C[C@@H](O)[C@H](n3cc(COC(=O)c4ccccc4)nn3)CN2Cc2cccs2)cc1,-29%,.
COC(=O)N1CCN(C(=O)Cc2ccc(Cl)c(Cl)c2)[C@H](CN2CCCC2)C1,-17%,-7%
C[C@@H]1C(=O)O[C@@H]2C[C@]34[C@H]5C[C@@H](C(C)(C)C)[C@@]36[C@@H](OC(=O)[C@@H]6O)O[C@@]4(C(=O)O5)[C@@]12O,-5%[17.8 µM],-10%[17.8 µM]
CCN(CC)CCOC(=O)c1ccc(N)cc1Cl,7%,0%
Cc1ncc2c(c1CNC(=O)c1cncs1)CCN(C(=O)c1ccc(C(C)(C)C)cc1)C2,?,-4%
COC(=O)C1=C(C(=O)OC)[C@@H]2N(Cc3ccccc3)c3ccccc3[C@@]23CCC(=O)N(CC2CC2)C3=N1,?,-6%[8.59 µM]
O=C(NCCCc1ccccc1)c1cccc(NC(=O)C2CCCC2)c1,22%,.
N#CCCCS(=O)(=O)c1nc2ccccc2s1,2%,0%
CCNCCCNCCCCNCCCNCC,-11%,-1%
COc1ccc2ccccc2c1CN1CCc2nnc(CNC(=O)c3cccc(F)c3)n2CC1,-19%,2%
Cc1ncc2c(c1CNC(=O)c1ccc3c(c1)OCO3)CCN(C(=O)c1cnsn1)C2,-9%,-1%
CC1=CC[C@@H](COc2ccccc2)O[C@@]2(C1)C(=O)N(Cc1ccccc1C(F)(F)F)c1cccc(Br)c12,-7%[8.59 µM],18%[8.59 µM]
CO[C@H]1C=CO[C@@]2(C)Oc3c(C)c(O)c4c(O)c(cc(O)c4c3C2=O)NC(=O)/C(C)=C\C=C/[C@H](C)[C@H](O)[C@@H](C)[C@@H](O)[C@@H](C)[C@H](OC(C)=O)[C@@H]1C,2%,-12%
CCO[C@@H]1C[C@@]1(C=C[C@@H](C)[C@H](OC)c1ccccc1Br)C(=O)OC,-14%[8.59 µM],-30%[8.59 µM]
N#C/C(=C\c1ccc(O)c(O)c1)C(=O)NCCCNC(=O)/C(C#N)=C/c1ccc(O)c(O)c1,-31%,-21%
COc1cccc(C(=O)N2[C@H](COCc3ccccc3)C=CS2(=O)=O)c1,-14%,.
CC(C)(C)CC(C)(C)c1ccc(OCOCCOCCO)c(Cc2cc(C(C)(C)CC(C)(C)C)cc(Cc3cc(C(C)(C)CC(C)(C)C)ccc3OCOCCOCCO)c2OCOCCOCCO)c1,33%[activator][17.8 µM],6%[17.8 µM]
N#Cc1ccccc1-c1ccc2ncnc(N3CCNCC3)c2c1,-3%,-3%
COc1ccc(/C=C2\NC(=O)[C@@H]3Cc4ccccc4CN3C2=O)cc1,20%,-2%
O=C(O)CC/C=C\CC[C@@H]1[C@@H](N2CCCCC2)[C@@H](O)C[C@@H]1OCc1ccc(-c2ccccc2)cc1,11%,-1%
COC(=O)c1c(C)cc(OC)cc1O,7%,1%
O=C1CCCCC1CN1CCCCC1 (stereo not given),-4%,-10%
CCCCCCCCCCCCC/C=C/[C@@H](O)[C@H](CO)NC(=O)CCCCCCCCCCCCCCC,27%&26%,-4%&-6%
CN(C)c1ccc(-c2cc(NCc3cccnc3)ncn2)cc1,46%[activator],2%

# Going on with the list:
SMILES,Marburg entry,Lassa entry
CO[C@@H]1[C@H](OC(=O)/C=C/C=C/C=C/C=C/C(=O)O)CC[C@]2(CO2)[C@H]1[C@@]1(C)O[C@@H]1CC=C(C)C,-9%,?
O=C(c1cccs1)N1C[C@@H](O)[C@@H](n2cc(-c3ccc(F)cc3)nn2)C[C@@H]1c1ccc(Cl)cc1,5%,?
CNCC[C@H](Oc1ccccc1OC)c1ccccc1,?,-21%
CCCCCCN1C[C@H](O)[C@@H](n2cc(C3CC3)nn2)C[C@H]1c1ccc(C)cc1,?,-6%
CCOC(=O)CN1C(=O)[C@]2(OC[C@@H]3Cc4ccccc4[C@H]3C=C2C)c2ccccc21,-22%[8.59 µM],1%[8.59 µM]
CCCCC(=O)OCC(=O)[C@]1(O)Cc2c(O)c3c(c(O)c2[C@@H](O[C@H]2C[C@H](NC(=O)C(F)(F)F)[C@H](O)[C@H](C)O2)C1)C(=O)c1c(OC)cccc1C3=O,?,2.8µM*
CCCCN1CC(COCc2ccccc2)Oc2cccc(N3CCCC3)c2S1(=O)=O (stereo not given),-12%,-38%
O=c1[nH]c2ccccc2c2ccccc12,8%,3%
COC(=O)[C@H](CC(C)C)NS(=O)(=O)c1c(F)cccc1F,7%,15%
CCCCN1C[C@H](COC(=O)CCC)Oc2cccc(F)c2S1(=O)=O,?,4%
Cn1cccc1-c1cccnc1,16%,-6%
COc1ccc(C(C)(C)C)cc1NC(=O)OC[C@@H]1CSCCS(=O)(=O)N1,24%,-4%
CC(C)N1C(=O)c2ccccc2NS1(=O)=O,4%,-9%
C=CCOC(=O)N[C@H](C(C(=O)OC)=C(C)NCc1ccccc1)c1cccc(C(F)(F)F)c1,3%&6%[8.59 µM],31%[activator][8.59 µM]
CCCS(=O)(=O)NCc1c(C)ncc2c1CCN(C(=O)c1c(F)ccc(F)c1F)C2,-2%,-13%
COCc1c(C(=O)N2CC3CCC2C3)cnn1-c1nccc(-c2ccccc2OC)n1 (stereo not given),-4%,90%[activator]
NCCCC[C@H](NC(=O)[C@H](CCCN=C(N)N)NC(=O)[C@H](CO)NC(=O)[C@H](CCCN=C(N)N)NC(=O)[C@@H](N)Cc1ccc(O)cc1)C(=O)N[C@@H](Cc1ccc(O)cc1)C(=O)N[C@@H](CO)C(=O)N[C@@H](CO)C(=O)N[C@@H](Cc1c[nH]c2ccccc12)C(=O)N[C@@H](Cc1ccc(O)cc1)C(=O)O,9%,-4%
COc1ccc(O)c(CN2CCOc3c(cc(-c4cccc(OC)n4)cc3OC)C2)c1,?,?
CCOC(=O)CC(C(=O)OCC)C1CCCCC1=O (stereo not given),-8%,5%
COc1cc2nc(N3CCCC(O)C3)c(CNCc3ccccc3F)cc2c(OC)c1OC (stereo not given),-8%,-25%
CC12CC[C@@H]3c4ccc(OS(=O)(=O)O)cc4CC[C@H]3C1CCC2=O (stereo not given in full),15%[17.8 µM],-4%[17.8 µM]
CCCCN1CC(C)(C)Oc2cccc(F)c2S1(=O)=O,18%,48%[activator]
Cn1cnc2c1c(=O)[nH]c(=O)n2C,6%,0%
CSCC[C@H](NC(=O)[C@H](CC(C)C)N(C)C(=O)[C@@H]1CCCN1C(=O)[C@H](Cc1ccccc1)NC(=O)[C@H](Cc1ccccc1)NC(=O)CCC(C)N)C(=O)O (stereo not given in full),1%,-8%
Cc1cccc2c(Nc3ccc4c(c3)OCO4)nc(CN3CCC(N4CCCCC4)CC3)nc12,10µM*,22µM*

# Quoted at random: 4 compounds from above, in no set order.
SMILES,Marburg entry,Lassa entry
COc1cc2nc(N3CCCC(O)C3)c(CNCc3ccccc3F)cc2c(OC)c1OC (stereo not given),-8%,-25%
Cc1cccc2c(Nc3ccc4c(c3)OCO4)nc(CN3CCC(N4CCCCC4)CC3)nc12,10µM*,22µM*
COC(=O)C1=C(C(=O)OC)[C@@H]2N(Cc3ccccc3)c3ccccc3[C@@]23CCC(=O)N(CC2CC2)C3=N1,?,-6%[8.59 µM]
Cn1cnc2c1c(=O)[nH]c(=O)n2C,6%,0%

# Following part:
SMILES,Marburg entry,Lassa entry
C(#CCN1CCCC1)CN1CCCC1,8.9µM*,?
CC(=O)N1CC[C@H]2CC(=O)CC[C@@]21C,11%[107 µM],1%[107 µM]
CC/C=C\C/C=C\C/C=C\CCCCCCCCCCCC(=O)O,-12%&-15%,?
CC(=O)c1ccccc1-c1ccc2c(c1)CC(CNC(=O)C[C@@H]1C[C@@H](C)NC(=S)N1)O2 (stereo not given in full),4%,-1%
CC[C@]1(O)C[C@@H]2CN(CCc3c([nH]c4ccccc34)[C@](C(=O)OC)(c3cc4c(cc3OC)N(C=O)[C@H]3[C@@](O)(C(=O)OC)[C@H](C(=O)OC)[C@@]5(CC)C=CCN6CC[C@]43[C@H]65)C2)C1,?,-19%
COc1cccc(-c2ccnc(-n3ncc(C(=O)NCC4(N5CCCCC5)CCCC4)c3C)n2)c1,?,-12%
Cn1ccc2c(-c3ccc(F)cc3)cc3c(c21)C1CCC3O1 (stereo not given),15%,21%
Cc1ncc2c(c1CNS(=O)(=O)N(C)C)CCN(C(=O)/C=C/c1ccccc1F)C2,-17%,-9%
CC1=C(C(=O)Nc2ccc3[nH]ncc3c2)C(c2ccc3ccccc3c2)CC(=O)N1 (stereo not given),-7%,0%
CCCCOc1ccc(C(=O)CCN2CCCCC2)cc1,?,-9%
COC1[C@H](OC(N)=O)C(O)[C@H](Oc2ccc3c(O)c(NC(=O)c4ccc(O)c(CC=C(C)C)c4)c(=O)oc3c2C)OC1(C)C (stereo not given in full),10%,13%
N#C/C(=C\c1ccc(O)c(O)c1)C(=O)OCCc1cccs1,8%,-1%
